Assay outcomes (PubChem)
Bead autofluor: compound fluorescence in toxin protease inhibitor counterscreen; hit rate 3.1% among 360,000; fluorescence intensity (test concentration not listed); compound autofluorescence counterscreen, microsphere flow cytometry; stronger effect = higher value;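 active = at least 3 SD above the mean of all compounds, about 16000 in these data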;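 note: 100 nL of 1 mM stock went into each well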
Sa ugtP lethal: compounds lethal to S. aureus RN4220 ugtP deletion mutant. AID 1259309. hit rate 0.54% among 330,000. OD600 growth, 16 h; some inactives read as strong as hits. growth inhibition, % (test concentration not listed);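 active = z-score under -3 and OD600 up to 0.15 on both plates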;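 note: plate controls were untreated wells for no effect and antibiotic for full effect; wells of about 80 µL received 100 nL stock; the first replicate is given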
Mtb hypoxia inh: Mtb hypoxia fluorescent reporter inhibition. fluorescence inhibition, % (concentration not given with the values). hit rate 0.1% among 300,000. M. tuberculosis hypoxia-regulated fluorescent reporter, fluorescence;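 active = 35 to 45% if threefold the growth effect, above 45% if 1.5-fold the growth effect; inactive = the rest, general growth blockers included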;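 note: wells of about 50 µL received 100 nL stock; 0% = vehicle wells and 100% = reference inhibitor wells; whole bacteria with a GFP reporter of the hypoxia response; strong numbers were not always called active; many hits fall short of the cut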
BJeLR viability: BJeLR cell viability loss. BJeLR (HRASV12) viability, CellTiter-Glo ATP luminescence, 48 h; reference of the scale not given here. inhibition, % (test concentration not listed). hit rate 0.17% among 300,000;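 active = replicate mean above 50%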;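 note: 50 nL library stock added to about 25 µL; numbers are from one replicate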
PrP 5UTR inh: suppresses PrP 5' UTR mRNA reporter expression | inhibition, % (concentration not given with the values) | cell-based PrP 5' UTR mRNA reporter, plate reader | hit rate 0.35% among 340,000 | AID 488862;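 active = every replicate at 50% or more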;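 note: 0 = median of the neutral control wells; tested in H4 reporter cells; numbers are from one replicate; inactives centre near -14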
Sa RN4220 lethal: S. aureus RN4220 growth inhibition; OD600, 16 h; inhibition, % (test concentration not listed); hit rate 0.33% among 330,000; AID 1259311;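 active = z-score of -3 or lower and OD600 up to 0.18 on both plates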;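 note: plate controls were untreated cells for no effect and reference antibiotic for full effect; stock transfer was 100 nL into about 80 µL; one replicate is shown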
Mtb hypoxia inh growth: recorded beside Mtb hypoxia inh, whose call it bears; growth inhibition, %; measured here: M. tuberculosis growth (absorbance);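 0% = vehicle and 100% = reference antibiotic; read after six days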
An asterisk follows results filed as active; / = not tested or not shown.

Preview (seven entries):
SMILES	Bead autofluor	Sa ugtP lethal	Mtb hypoxia inh	Mtb hypoxia inh growth	BJeLR viability	PrP 5UTR inh	Sa RN4220 lethal
O=C(CSc1nccn1Cc1ccco1)Nc1ccccc1F	5838	5	-2	7	-12	-79	2.8
C=CCn1c(C)cc(C(=O)COc2ccc(C)nc2[N+](=O)[O-])c1C	2764	4	6	2	4	8	9.8
CC[C@@]1(C(=O)OC)N[C@H](CN(C)C(=O)NC(C)C)[C@@H]2C(=O)N(C)C(=O)[C@@H]21	3691	4	3	1	/	-7	2.8
Cc1ccc(Cn2c(N3CCNCC3)nc3c2c(=O)[nH]c(=O)n3C)cc1	3113	7	1	-7	2	7	4.9
Cc1ccc(S(=O)(=O)/N=C2/NC(=O)/C(=C/c3ccc(Br)o3)S2)cc1	6854	17	5	8	9	-13	41
O=S(=O)(N=C(c1ccccc1)N1CCOCC1)c1ccc(F)cc1	/	4	3	-7	/	/	3.4
Cc1ccc(C(=O)Nc2c(C#N)c(C)c(C)n2Cc2ccccc2)cc1	2877	0	/	/	3	-15	-3.5

All compounds of this part, from the first entry:
SMILES	Bead autofluor	Sa ugtP lethal	Mtb hypoxia inh	Mtb hypoxia inh growth	BJeLR viability	PrP 5UTR inh	Sa RN4220 lethal
O=C(CSc1nccn1Cc1ccco1)Nc1ccccc1F	5838	5	-2	7	-12	-79	2.8
C=CCn1c(C)cc(C(=O)COc2ccc(C)nc2[N+](=O)[O-])c1C	2764	4	6	2	4	8	9.8
CC[C@@]1(C(=O)OC)N[C@H](CN(C)C(=O)NC(C)C)[C@@H]2C(=O)N(C)C(=O)[C@@H]21	3691	4	3	1	/	-7	2.8
Cc1ccc(Cn2c(N3CCNCC3)nc3c2c(=O)[nH]c(=O)n3C)cc1	3113	7	1	-7	2	7	4.9
Cc1ccc(S(=O)(=O)/N=C2/NC(=O)/C(=C/c3ccc(Br)o3)S2)cc1	6854	17	5	8	9	-13	41
O=S(=O)(N=C(c1ccccc1)N1CCOCC1)c1ccc(F)cc1	/	4	3	-7	/	/	3.4
Cc1ccc(C(=O)Nc2c(C#N)c(C)c(C)n2Cc2ccccc2)cc1	2877	0	/	/	3	-15	-3.5
C#CCOCCOCCOCCNc1nc(N2CCOCC2)nc(N2CCN(C(=O)[C@H](CCCCN)n3cc([C@@H](N)CO)nn3)CC2)n1	3996	/	/	/	-4	-15	/
Cc1ccccc1-c1nnc(SCC(=O)N(CC(C)C)c2c(N)n(CC(C)C)c(=O)[nH]c2=O)n1C	6298	6	6	11	5	-20	3.2
CC(=O)Nc1ccc(-c2ccc3nnc(C)n3n2)cc1	4669	7	12	5	-1	-22	2.7
O=C1C2C3C=CC(C3)C2C(=O)N1c1ccc(-c2nc3ccccc3c(=O)o2)cc1 (stereo unspecified)	2133	0	8	5	5	-32	-2.9
O=C(CN1CCOCC1)Nc1ccc(S(=O)(=O)N2CCCCCC2)cc1	9941	6	5	7	-4	-28	4.9
CC(C)[C@H](NC(=O)NCc1ccco1)C(=O)O	2859	-4	9	9	13	-17	-7.8
Cc1ccc(C(=O)Cn2nc(C(=O)O)c3ccccc3c2=O)cc1C	5890	12	4	1	0	-24	3.5
Cn1cc(Cl)c(C(=O)N(Cc2ccccc2)c2ccccn2)n1	5029	8	12	2	9	-24	3.6
Cc1cccnc1NC(=O)Cn1c(=O)oc2ccccc21	4104	4	2	-3	2	-2	6.9
O=C(NN(C(=O)c1ccccc1)c1ccccc1)c1ccccc1	5363	7	3	4	-1	-21	4.7
O=C(CSc1nc2cc(Cl)ccc2s1)NC(=O)NCc1ccco1	8504	13	-2	1	-2	-13	11
COC(=O)[C@]1(Cc2ccccc2)N[C@H](c2ccc(-c3ccccc3)cc2)[C@@H]2C(=O)N(C)C(=O)[C@@H]21	4302	/	/	/	-2	-16	/
CSCCOC(=O)C1=C(C)NC(=O)NC1c1ccc2c(c1)OCO2 (stereo unspecified)	3239	-6	-2	-1	12	-28	2.5
Cc1cccc(C(=O)NN=C2CS(=O)(=O)N(C)c3ccsc32)c1	/	2	-4	2	/	/	3.0
COc1ccc(S(=O)(=O)N2CCCCC2)cc1NC(=O)CNc1ccccc1C(C)=O	6151	3	7	0	/	-6	-0.5
COc1ccc2c(c1)SCC(=O)N2C	21232*	7	-4	5	0	-33	6.8
COc1ccc(S(=O)(=O)N(C)CC2Oc3c(NC(=O)Nc4ccc5c(c4)OCO5)cccc3C(=O)N(C(C)CO)CC2C)cc1 (stereo unspecified)	/	-1	5	1	/	/	0.5
CC1CCCCC1NC(=O)c1ccc(CNc2c(N3CCCC3)c(=O)c2=O)cc1 (stereo unspecified)	5891	8	6	5	1	-32	-1.5
COc1ccccc1CC(=O)Nc1cc(OC)c(NC(=O)c2ccccc2)cc1OC	/	4	5	8	3	-8	15
CC(=O)Nc1cccc(OCc2c(F)cccc2Cl)c1	3474	-5	4	5	3	-17	3.8
C=C(C)C1CC=C(C)C(=NNC(=O)c2ccoc2C)C1 (stereo unspecified)	/	-12	12	-2	/	/	2.7
CC(=O)c1ccc(NC(=O)CN(c2c(C)cccc2C)S(C)(=O)=O)cc1	4112	1	7	-2	-3	-42	5.9
CC1CCN(C2=NC(=O)/C(=C/c3cn[nH]c3-c3ccccc3)S2)CC1	2573	4	1	0	-23	-49	2.8
CCN(C(=O)Cn1c([N+](=O)[O-])cnc1C)c1ccccc1	3561	8	0	2	-5	-2	-2.1
CCOCCOc1cccc(C(=O)NC(c2ccccc2)C(C)C)c1 (stereo unspecified)	3511	4	18	5	1	0	8.7
COc1ccc(-n2ccc3ccccc32)cc1	4597	2	8	14	7	-15	9.3
COc1cccc(C=NNC(=O)c2ccc(C)nc2)c1	/	10	7	12	/	/	-2.8
CC1CCCC(CC(=O)O)(CC(=O)O)C1 (stereo unspecified)	3070	-2	-4	-4	2	6	-0.8
Cc1cccc(C)c1N1C(=O)c2ccccc2C1=O	6957	12	3	0	14	-28	-2.5
O=C(COC(=O)c1ccccc1Br)NCC1CCCO1 (stereo unspecified)	2981	7	-3	0	/	-11	8.7
Cc1ccc(S(=O)(=O)N(CC(=O)N2CCC(C)CC2)c2ccccc2)cc1	5176	8	1	3	0	-29	10.0
CCn1c(SCC(=O)Nc2cccc(NC(=O)c3cccs3)c2)nnc1-c1ccncc1	2548	-5	/	/	-6	-17	1.6
CCOC(=O)c1sc(N2C(=O)C(O)=C(C(=O)c3ccco3)C2c2ccc(C)o2)nc1C (stereo unspecified)	3796	18	-4	-4	-7	-19	22
Nc1nc(NCc2ccco2)nc(N2CCN(Cc3ccccc3)CC2)c1[N+](=O)[O-]	/	5	3	3	-2	-8	-0.7
CCCCNC(=O)c1c[nH]c2ccc(S(=O)(=O)N3CCOCC3)cc2c1=O	4482	-66	14	4	-1	-23	4.9
O=C(NCC1CCCO1)c1ccc(NC(=O)c2cc(F)c(F)cc2Cl)cc1 (stereo unspecified)	3309	8	12	6	3	-6	3.3
O=C(Nc1nc2c(Cl)ccc(Cl)c2s1)c1ccco1	4427	-1	1	10	-9	-1	-2.3
Cn1cnc(C(=O)N2CCN(c3ccccc3)CC2)c1C(=O)N1CCN(c2ccccc2)CC1	3193	-4	13	13	/	-28	2.4
C=CCN(CC(=O)NCc1ccc(F)cc1)C(=O)c1csnn1	8543	-4	-1	1	-3	-15	-3.7
O=C(NC(=S)N1CCN(C/C=C/c2ccccc2)CC1)c1ccco1	5665	15	16	10	2	29	2.6
O=C1CCC(=O)N1c1ccc(NCc2ccccc2Cl)c([N+](=O)[O-])c1	2419	-2	9	4	-1	-17	5.6
O=C(c1ccco1)N1CCN(C2CCCC2)CC1	2700	3	/	/	-4	-8	-0.1
Cc1ccc(-c2nc(N)sc2CC(=O)OCC(=O)NC2CCCC(C)C2C)cc1 (stereo unspecified)	2244	2	1	-2	-6	-20	1.0
(cont.)
SMILES	Bead autofluor	Sa ugtP lethal	Mtb hypoxia inh	Mtb hypoxia inh growth	BJeLR viability	PrP 5UTR inh	Sa RN4220 lethal
O=C(C=Cc1ccccc1)c1cc(Br)ccc1O	3524	18	14	4	/	-14	3.3
CC1CCCCN1C(=O)CSc1nnc(-c2ccc(Cl)s2)o1 (stereo unspecified)	2757	-5	/	/	2	-35	4.0
S=C(NCCSCc1ccc(Cl)c(Cl)c1)Nc1ccccc1	3189	30	/	/	1	-7	30
COc1ccccc1CN(Cc1cc2cc(C)ccc2[nH]c1=O)Cc1nnnn1Cc1ccco1	5019	-12	/	/	1	-20	-0.4
CC1CCCCC1NC(=O)COC(=O)C12CC3CC(CC(Cl)(C3)C1)C2 (stereo unspecified)	4572	8	-3	5	0	-28	4.8
O=C(Cc1cccc(NC(=O)C2CCCN(C(=O)C3CCCCC3)C2)c1)Nc1cccc(C(=O)N2CCCCC2)c1 (stereo unspecified)	3619	5	-5	0	/	-24	2.1
CCC(Sc1ncccc1C(=O)OC(C)C)C(=O)NCc1ccco1 (stereo unspecified)	7901	9	10	9	-1	-33	3.4
C=CCNC(=O)CC(=O)N/N=C/c1cccs1	4863	/	/	/	1	-11	/
CN(C)c1nc(N)ncc1-c1ccc(Oc2ccccc2)cc1	3290	-1	-2	1	-7	-10	1.5
Cn1c(=O)n(CC(=O)Nc2cccnc2)c2ccccc21	8502	6	5	2	11	/	2.8
O=C(CCc1nc2ccccc2[nH]c1=O)N/N=C/c1ccccc1	3571	/	/	/	-5	-14	/
O=C(O)c1ccc(N/N=C/C(Br)=C/c2ccccc2)cc1	3416	/	/	/	-3	-204	/
COCc1cc(=O)n2[nH]c(-c3cccs3)cc2n1	3721	3	-12	-15	-8	-33	0.3
CN(C)c1ccc(NC(=O)COC(=O)c2cc(=O)c3ccccc3o2)cc1	8011	0	-3	0	-1	-25	-4.3
O=c1c(Cc2c(F)cccc2Cl)c(O)ccn1CC1CCCO1 (stereo unspecified)	4437	-1	6	-4	5	-15	1.9
CCOC(=O)c1cc(CN2CCOCC2)oc1-c1ccccc1	4840	1	1	3	5	-2	5.1
COc1ccc(NC(=O)CSc2nc3ccccc3nc2N2CCCC2)cc1Cl	5441	-6	6	9	-11	-14	-10
COc1ccc(C2C=CCN(S(C)(=O)=O)C(C)C(=O)N2Cc2ccc(F)cc2)cc1 (stereo unspecified)	/	5	18	14	/	/	4.8
CCCn1c(=S)[nH]c2cc(C(=O)N3CCN(C(=O)OCC)CC3)ccc2c1=O	5189	0	-6	2	3	-2	-2.6
CCC1CCCCN1C(=O)c1ccc(OC)c(OC2CCN(C(C)=O)CC2)c1 (stereo unspecified)	5720	3	0	-11	-8	-18	0.1
O=c1c(Cl)c(NCc2ccco2)cnn1C12CC3CC(CC(C3)C1)C2	4554	14	5	4	14	/	2.9
Cn1c(/C(C#N)=C/c2ccc(-c3ccc(S(N)(=O)=O)cc3)o2)nc2ccccc21	10565	13	2	2	/	-20	22
COC(=O)c1ccnc(C=NO)c1	/	2	12	2	/	/	3.2
CCn1cc(C(=O)O)c(=O)c2cc(F)c(N3CCN(S(=O)(=O)c4ccc(NC(=O)OC)cc4)CC3)cc21	2182	100*	7	8	-6	-19	97*
CC(=O)NC1(C(F)(F)F)NC(=O)N(C2CCCCC2)C1=O (stereo unspecified)	22952*	-4	2	10	-11	-14	2.3
CC(NC(=O)CN1C(=O)c2ccccc2C1=O)c1ccccc1 (stereo unspecified)	2818	14	-9	-13	-5	-16	1.4
Cc1ccc(S(=O)(=O)N(C)C)cc1NC(=O)C(C)OC(=O)C1CCCCC1 (stereo unspecified)	3621	7	18	12	/	-18	4.6
COc1cccc(CNC2CCCC2)c1	10393	-1	0	7	-1	-28	6.8
CC(=O)Nc1ccc(C(=O)CN2CCN(c3ccccc3)CC2)cc1	5682	-2	3	4	-5	-21	1.3
CCOC(=O)C1=C(COC(=O)c2cc(OC)c(OC)cc2[N+](=O)[O-])NC(=O)NC1C (stereo unspecified)	5798	-1	-1	1	4	0	3.1
O=C(COC(=O)/C=C/c1cccc(Cl)c1)Nc1cccc(S(=O)(=O)NC2=NCCC2)c1	/	-2	12	4	/	/	2.0
Cc1cc2nc(CCN(C(=S)NCC(C)C)C3CCCC3)[nH]c2cc1C	12621	-14	1	15	7	1	-4.0
Cc1ccccc1C1=NCC(=S)Nc2ccc(Cl)cc21	4467	0	/	/	3	-7	3.0
O=C(Cn1ccc([N+](=O)[O-])n1)N1CCCCC1	4807	-2	2	1	-6	-23	3.5
